High-throughput results from PubChem BioAssay.
BJeLR viability: BJeLR cell viability loss | BJeLR (HRASV12) viability, CellTiter-Glo ATP luminescence, 48 h; reference of the scale not given here | inhibition, % (test concentration not listed) | 300,000 tested, 0.17% active;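 active = replicate mean above 50%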;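 also: 50 nL library stock added to about 25 µL; numbers are from one replicate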
Sa RN4220 lethal: S. aureus RN4220 growth inhibition; inhibition, % (no concentration beside the values); 330,000 tested, 0.33% active; OD600, 16 h; AID 1259311;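 active = z-score of -3 or lower and OD600 up to 0.18 on both plates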;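 also: plate controls were untreated cells for no effect and reference antibiotic for full effect; stock transfer was 100 nL into about 80 µL; one replicate is shown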
PrP UTR inh: inhibition of PrP 5' UTR reporter expression; cell-based PrP 5' UTR mRNA reporter, plate reader; inhibition, % (concentration not given with the values); 340,000 tested, 0.35% active; AID 488862;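 active = every replicate at 50% or more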;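 also: 0 = median of the neutral control wells; tested in H4 reporter cells; numbers are from one replicate; inactives centre near -14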
Bead autofluor: flagged as autofluorescent in microsphere protease counterscreen; fluorescence intensity (no concentration beside the values); 360,000 tested, 3.1% active; compound autofluorescence counterscreen, microsphere flow cytometry; stronger effect = higher value;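 active = at least 3 SD above the mean of all compounds, about 16000 in these data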;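 also: 100 nL of 1 mM stock went into each well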
Mtb hypoxia inh: Mtb hypoxia fluorescent reporter inhibition. M. tuberculosis hypoxia-regulated fluorescent reporter, fluorescence. fluorescence inhibition, % (test concentration not listed). 300,000 tested, 0.1% active;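 active = 35 to 45% if threefold the growth effect, above 45% if 1.5-fold the growth effect; inactive = the rest, general growth blockers included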;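 also: wells of about 50 µL received 100 nL stock; 0% = vehicle wells and 100% = reference inhibitor wells; whole bacteria with a GFP reporter of the hypoxia response; strong numbers were not always called active; many hits fall short of the cut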
ugtP null kill: kills S. aureus RN4220 lacking UgtP; AID 1259309; 330,000 tested, 0.54% active; S. aureus RN4220 ugtP deletion, OD600 growth, 16 h; some inactives read as strong as hits; growth inhibition, % (concentration not given with the values);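 active = z-score under -3 and OD600 up to 0.15 on both plates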;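 also: plate controls were untreated wells for no effect and antibiotic for full effect; wells of about 80 µL received 100 nL stock; the first replicate is given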
Mtb hypoxia inh growth: further read-out of Mtb hypoxia inh, marked with its call; growth inhibition, %; measured here: M. tuberculosis growth (absorbance);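 0% = vehicle and 100% = reference antibiotic; read after six days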
Starred values were filed as active, the others as inactive; . = not tested or not shown; & = joins results of further samples.

SMILES	BJeLR viability	Sa RN4220 lethal	PrP UTR inh	Bead autofluor	Mtb hypoxia inh	Mtb hypoxia inh growth	ugtP null kill
O=C(COc1ncnc2ccccc12)Nc1cc([N+](=O)[O-])ccc1Cl	-5	2.4	-23	4395	4	1	2
CC(=O)NN=C1CCC(c2ccccc2)CC1 (stereo unspecified)	1	7.6	-30	2540	11	1	4
COc1ccc(N2CCN(C(c3cccs3)C(C)NC(=O)C(=O)N3CCOCC3)CC2)cc1 (stereo unspecified)	9	2.0	-22	5048	-4	-4	2
COc1cc(/C=C2/C(=N)N3C(c4ccccc4)=CSC3=NC2=O)ccc1OCC(=O)O	5	6.0	-27	4223	13	10	0
Cc1ccccc1CN1CCN(C/C=C/c2ccccc2)CC1	-3	-0.1	2	6248	-3	1	0
COc1ccc(CN(Cc2cc3cc(OC)c(OC)cc3[nH]c2=O)C(=O)NC2CCCCC2)cc1	.	4.4	-5	22119*	7	4	-2
O=C(CN1CCCCCCC1)NN=Cc1ccccc1F	.	2.8	.	.	5	0	2
Cc1cccc(NC(=S)N2N=CCC2c2ccccc2)c1 (stereo unspecified)	2	2.4	-25	17190*	0	-4	10
COc1cccc(CNC(=O)c2ccccc2-c2ccccc2)c1	-3	10	-8	5166	-2	0	-1
O=C(NC(=S)Nc1ccc(N2CCCCC2)cc1)c1ccco1	8	6.0	-146	20910*	18	25	4

Retrieved by structure from the list above, seven records:
SMILES	BJeLR viability	Sa RN4220 lethal	PrP UTR inh	Bead autofluor	Mtb hypoxia inh	Mtb hypoxia inh growth	ugtP null kill
COc1cccc(CNC(=O)c2ccccc2-c2ccccc2)c1	-3	10	-8	5166	-2	0	-1
COc1ccc(N2CCN(C(c3cccs3)C(C)NC(=O)C(=O)N3CCOCC3)CC2)cc1 (stereo unspecified)	9	2.0	-22	5048	-4	-4	2
O=C(COc1ncnc2ccccc12)Nc1cc([N+](=O)[O-])ccc1Cl	-5	2.4	-23	4395	4	1	2
COc1ccc(CN(Cc2cc3cc(OC)c(OC)cc3[nH]c2=O)C(=O)NC2CCCCC2)cc1	.	4.4	-5	22119*	7	4	-2
COc1cc(/C=C2/C(=N)N3C(c4ccccc4)=CSC3=NC2=O)ccc1OCC(=O)O	5	6.0	-27	4223	13	10	0
Cc1cccc(NC(=S)N2N=CCC2c2ccccc2)c1 (stereo unspecified)	2	2.4	-25	17190*	0	-4	10
CC(=O)NN=C1CCC(c2ccccc2)CC1 (stereo unspecified)	1	7.6	-30	2540	11	1	4

The list goes on.
SMILES	BJeLR viability	Sa RN4220 lethal	PrP UTR inh	Bead autofluor	Mtb hypoxia inh	Mtb hypoxia inh growth	ugtP null kill
Nc1nc(N)c(N=Nc2ccc(S(N)(=O)=O)cc2)c(=O)[nH]1	14	.	4	3523	.	.	.
COCc1cc(C)nc2sc(C(=O)N3CCCCC3)c(N)c12	-10	-0.3	10	10760	2	8	0
Nc1c2c(nc3ccccc13)CCN(Cc1ccccc1)C2	2	-0.7	-35	9150	7	6	3
Cc1cccc(NC(=O)N2C[C@H]3C[C@@H](C2)c2cccc(=O)n2C3)c1	2	2.6	-13	4089	.	.	-8
CCc1ccc(N(C2C=CS(=O)(=O)C2)S(=O)(=O)c2ccc(C)cc2)cc1 (stereo unspecified)	-10	1.1	-9	3311	-2	-6	6
COc1cc(OC)cc(C(=O)NC2CCN(Cc3nnnn3Cc3ccc(F)cc3)CC2)c1	2	1.6	-25	3472	-3	5	-1
COc1cccc(C(=O)N2CCN(C3CCCCC3)CC2)c1	4	.	-28	3696	.	.	.
Cc1ccc(CN2CC34C=CC(O3)C(C(=O)NCc3ccco3)C4C2=O)cc1 (stereo unspecified)	0	1.7	-25	4426	3	9	-5
CCOC(=O)C(Cc1ccccc1)NC(=O)CCc1c(C)nc2nc(C)nn2c1C (stereo unspecified)	-4	4.8	-21	4026	7	2	6
Cc1cc2ccccc2nc1Br	-4	4.0	-22	2011	6	4	6
CCn1c(SCC(=O)NC(C)c2ccccc2)nc2ccccc21 (stereo unspecified)	0	-1.6	-17	10918	6	7	7
CCN(CC)c1ccc(/C=N/NC(=O)c2ccc3nc[nH]c3c2)c(O)c1	53*	.	11	4584	.	.	.
Cc1c(Cc2ccccc2)sc(N=Cc2ccc3ccccc3c2)c1C(N)=O	.	1.8	.	.	2	-2	-7
COc1ccc(NC(=O)C2CCCN(S(C)(=O)=O)C2)cc1OC (stereo unspecified)	-1	6.6	-26	3846	9	4	11
COc1ccc(OCCSc2nc(N)cc(N)n2)cc1	4	-6.2	-79	4994	-2	-2	6
Cc1cc(C)cc(NC(=S)N2CC(C)OC(C)C2)c1 (stereo unspecified)	.	4.0	-14	5619	-12	-10	2
COc1cc(C(=O)N2CCCC(c3nc(-c4cccs4)no3)C2)cc(OC)c1OC (stereo unspecified)	-13	1.6	-30	17019*	3	5	-2
COc1ccc(-c2ccc(-c3nc4ccc(C)cn4c3NC3CCCCC3)cc2OC)cc1	-1	2.4	-8	3987&6591	-6	6	-30
Cn1c2ccccc2c(=O)c2cc(C#Cc3ccc(N)cc3)ccc21	-10	-16	-29	3687	6	4	-7
COc1ccc(NCC(=O)N/N=C/C=C/c2ccccc2[N+](=O)[O-])cc1	2	.	-19	5241	.	.	.
CS(=O)(=O)Nc1ccccc1C(=O)OCC(=O)NCc1cccs1	.	4.7	-9	3896	13	15	10
CC1CN(S(=O)(=O)c2ccc(Cl)c(S(=O)(=O)N3CC(C)OC(C)C3)c2)CC(C)O1 (stereo unspecified)	-3	5.6	-30	9371	6	14	5
Cn1ccnc1SCc1cn2ccccc2n1	15	4.7	-64	2989	4	3	-5
COc1ccc(C2CC(=O)C=C(C#CC(C)(C)C)C2)cc1 (stereo unspecified)	.	1.8	.	.	4	0	5
Cc1ccccc1Nc1c(-c2ccccc2)nc2ncccn12	0	3.0	-6	3771	9	-4	6
CC(C)OP(=O)(OC(C)C)C(C=O)=NNc1ccc([N+](=O)[O-])cc1	.	3.9	.	.	2	9	2
C/C(=N\NC(=O)CC1N=C(Cc2ccccc2)NNC1=O)c1ccc(C)cc1 (stereo unspecified)	37	.	9	2235	.	.	.
COc1cc([N+](=O)[O-])cc(C=NNC(=O)c2cc(-c3ccccc3)nc3ccccc23)c1O	.	7.9	.	.	5	-6	-2
O=C(COC(=O)Cc1c(F)cccc1Cl)NC(=O)c1ccccc1	10	2.4	-10	6245	2	9	2
COc1cc(CCC(=O)NCc2ccc(F)cc2)cc(OC)c1OC	-15	4.7	-13	4082	16	5	21
CC(=O)C1=C(C)NC(=O)CC1c1ccc(F)cc1 (stereo unspecified)	-5	8.5	-15	4231	10	4	7
COC(=O)c1sccc1NC(=O)Nc1ccc(OC)cc1	0	-1.3	-22	6368	10	8	0
CSc1ccc(/C=N/n2c(COc3ccccc3)n[nH]c2=S)cc1	4	.	-15	4181	.	.	.
COc1ccc(/C=N/NC(=O)c2cccnc2)cc1CN1CCCc2ccccc21	-9	.	0	3933	.	.	.
COc1ccc(-c2cc(N3C(=O)Nc4ccccc4N3O)n[nH]2)cc1	1	.	-2	8884	.	.	.
Cc1ccc(NC(=O)CSc2nc3ccccc3c3nc4ccccc4n23)cc1	45	10.0	33	19179*	-1	3	-7
COc1cc(/C=N/n2nnnc2N)ccc1OCc1c(C)no[n+]1[O-]	-4	.	-17	2513	.	.	.
CCN(CC)S(=O)(=O)c1cc(F)ccc1OC	.	2.7	-9	3909	.	.	6
COc1cc(NC(=O)c2cccc(Cl)c2)c(OC)cc1NC(=O)CN1CCCCC1	2	8.3	-9	4382	2	0	3
O=C(c1cnn2c(C(F)F)cc(-c3ccccc3)nc12)N1CCOCC1	0	6.4	-6	21284*	15	5	-7
O=c1nc(-c2ccccc2)c2ccccc2[nH]1	-5	4.5	1	4247	.	.	-3
CCOC(=O)N1CCC(Nc2c(NCCCN3CCN(C4CCCCC4)CC3)c(=O)c2=O)CC1	-6	3.9	-10	2832	7	11	1
COc1cccc(CN2CCN(CCCc3ccccc3)C(CCO)C2)c1O (stereo unspecified)	-3	-4.1	-18	4314	1	7	0
CCOC(=O)c1ccccc1OCc1cc(C=Nn2cnnc2)ccc1OC	.	1.9	.	.	-5	-6	2
O=C(/C=C/c1ccccc1)N1CCOCC1	3	3.4	-12	3556	14	5	9
Cc1ccc(NC(=O)CSc2nnc(-c3cccnc3)o2)c(C)c1	6	2.4	-25	5214	6	7	9
CCOC(=O)Cn1nc(C(F)F)c(Br)c1C	6	1.6	-90	4664	-2	1	10
COCCN1C(=O)NC(c2ccccc2)C(C(C)=O)=C1C (stereo unspecified)	.	8.2	.	.	11	9	-6
Cc1cc(OCC(=O)NNC(=S)NC(=O)c2cccs2)ccc1Cl	.	70	2	5773	2	0	47
COc1ccc(/C=C/C(=O)c2c(O)n(CCC3=CCCCC3)c(=O)[nH]c2=O)cc1	-14	89*	-3	2094	1	7	92*

(cont.)
SMILES	BJeLR viability	Sa RN4220 lethal	PrP UTR inh	Bead autofluor	Mtb hypoxia inh	Mtb hypoxia inh growth	ugtP null kill
O=C1N2CCSC2=NC1(NS(=O)(=O)c1ccccc1)C(F)(F)F (stereo unspecified)	6	4.0	-18	2496	-3	1	0
COc1cc(O)oc1C=Nc1ccc(Cl)cc1	-2	-2.4	0	9077	4	9	-7
CCOc1ccc(Nc2nc(NCCN3CCOCC3)nc(OC)n2)cc1	0	5.2	-24	22883*	8	3	0
CC(Nc1nc(-c2ccccc2O)nc2ccccc12)c1ccccc1 (stereo unspecified)	18	8.3	-114	4783	3	-5	5
Cc1coc2c(C)c3oc(=O)c(CCC(=O)NCCCN4CCCC4=O)c(C)c3cc12	-4	0.8	-9	5170	.	.	5
S=C1NCCc2ccc(Cl)cc2C1c1ccccc1 (stereo unspecified)	.	-5.4	-35	3011	.	.	7
CC(CN1C(=O)C(=O)NCC1C)NC(=O)CC12CC3CC(CC(C3)C1)C2 (stereo unspecified)	.	4.8	.	.	2	-3	2
O=C(Nc1nnc(S(=O)(=O)N2CCCCC2)s1)c1cccc(Br)c1	11	.	-34	5544	.	.	.
CCOC(=O)NC(=O)CSc1nnnn1-c1ccccc1	8	4.2	-23	8886	2	2	1
COc1ccc(OC)c(NC(=O)CSc2nc3[nH]c(=O)cc(O)c3s2)c1	.	1.2	-14	3515	15	28	-1
COc1cccc(C2C(C(C)=O)=C(O)C(=O)N2Cc2ccco2)c1 (stereo unspecified)	-6	9.8	-13	4342	8	1	3
CN(C(=O)COC(=O)CCCc1c[nH]c2ccccc12)c1c(N)n(Cc2ccccc2)c(=O)[nH]c1=O	.	4.2	-19	3767	7	0	0
CC(=O)c1ccc(N(CC(=O)Nc2cc(C)on2)S(=O)(=O)c2ccc(C)cc2)cc1	.	-0.8	-11	4231	-1	-4	2
CNNC(=S)Nc1cccc(SC)c1	-3	1.9	-19	.	10	10	-1
COc1ccccc1CCC(=O)Nc1cccc(S(=O)(=O)N2CCCC2)c1	-8	0.9	-29	5646	5	-2	4
Cc1ccc(S(=O)(=O)CCC(=O)OCC(=O)c2cc(C)ccc2C)cc1	6	2.2	-8	6721	-6	5	4
COc1ccc(N(CC(=O)NCc2cccnc2)S(=O)(=O)c2ccccc2[N+](=O)[O-])c(OC)c1	-3	9.1	-22	4896	2	-4	-16
CSc1cccc(NC(=S)N(CCCN2CCCC(C)C2)Cc2cccs2)c1 (stereo unspecified)	4	1.1	18	4293	9	5	0
CCN1CCN(CC(O)COC(c2ccccc2)c2ccccc2C)CC1 (stereo unspecified)	2	1.1	-21	3914	1	-1	0
Cc1cc(Cl)ccc1OCCCC(=O)N1CCOCC1	-2	6.2	-31	9048	3	3	11
CC(=O)Nc1ccc(/C=N/NS(=O)(=O)c2cc(C)ccc2C)cc1	8	.	-11	3601	.	.	.
COc1ccc(C2C(Oc3ccccc3)C(=O)N2c2cc(C)ccc2C)cc1OC (stereo unspecified)	-8	3.0	-4	20605*	2	6	5
O=C(NCc1cccs1)C1CCN(S(=O)(=O)N2CCCC2)CC1	3	4.0	-14	8540	2	-7	11
O=C(NC1CCCCC1)c1ccc(S(=O)(=O)c2ccccc2Cl)c([N+](=O)[O-])c1	0	-0.8	.	.	8	0	17
O=C(Nc1cccc(F)c1)c1cc(S(=O)(=O)N2CCOCC2)ccc1N1CCCC1	.	0.6	3	8895	8	-3	-3
COc1ccc(CCNC(=O)C2CCN(Cc3nc(-c4ccccc4F)oc3C)CC2)cc1OC	2	1.7	-4	15722	9	1	5
